GLA inh pH 4.5 = qHTS Assay for Inhibitors of Human alpha-Galactosidase at pH 4.5; Alpha-galactosidase A (Homo sapiens), P06280; purified enzyme, 4-MU-alpha-Gal fluorescence, pH 4.5; activity change, negative = inhibition, % at 105 µM; 230,000 tested, under 10 active; inconclusive = small, poorly fitted or top-dose-only inhibition, or a rising curve; inactive = flat fitted curve, though single readings scatter; no compound was filed as active;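 further: 0% = full activity with enzyme and -100% = basal without enzyme; dose as in the result columns while the protocol names 77 µM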
Target sequence (P06280 whole entry, looked up): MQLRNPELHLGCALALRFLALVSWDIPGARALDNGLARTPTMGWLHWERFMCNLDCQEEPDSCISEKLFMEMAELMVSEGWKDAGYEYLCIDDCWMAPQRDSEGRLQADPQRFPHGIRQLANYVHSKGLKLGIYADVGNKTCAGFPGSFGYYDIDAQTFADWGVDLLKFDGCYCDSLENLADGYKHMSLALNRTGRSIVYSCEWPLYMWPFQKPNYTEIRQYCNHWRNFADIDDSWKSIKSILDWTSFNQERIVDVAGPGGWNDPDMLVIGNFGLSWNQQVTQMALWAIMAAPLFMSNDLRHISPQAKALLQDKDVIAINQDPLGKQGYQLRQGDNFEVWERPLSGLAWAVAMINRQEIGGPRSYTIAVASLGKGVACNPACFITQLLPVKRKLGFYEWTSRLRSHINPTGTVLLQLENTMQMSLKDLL
miR-21 reporter = qHTS Assay for Modulators of miRNAs and/orActivators of miR-21 | 340,000 tested, under 10 active | HeLa miR-21 FLuc reporter, luciferase, 48 h | Potency, µM (series often up to 38.3 µM), for inactives: at the highest dose reporter change, positive = more light; active = well fitted rising curve with a large enough effect; inconclusive = small, poorly fitted or top-dose-only effect; inactive = no such curve, though single readings can be large or run the other way;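 further: % of control where 0% means no effect; miR-21 action dims this reporter so a rising signal means less miR-21 action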
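Compounds were titrated across several concentrations (up to approximately 40 uM) and incubated 48 hours with HeLa miR-21-FLuc reporter cells (miR-21 target sequence downstream of FLuc, endogenous miR-21). Readout was firefly luciferase luminescence after lytic detection reagent.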
Rango-impB inh = qHTS Assay for Inhibitors of Rango (Ran-regulated importin-beta cargo) - Importin beta complex formation; hit rate 0.031% among 340,000; AID 540263, 2011; Importin subunit beta-1 (Homo sapiens), Q14974; Rango CFP/YFP FRET sensor + importin beta, 45 min; Potency, µM (doses to about 92.2 µM), for inactives: top-dose inhibition of complex formation; active = rising FRET ratio curve, often small or poorly fitted; inconclusive = mostly compound fluorescence or quenching in the first reads; inactive = flat curves in all reads;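 further: potency means the concentration at half of the fitted maximal effect; 0% = DMSO wells and 100% = buffer wells lacking importin beta; nearly all actives have a fitted effect of over 15% in size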
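Inhibition scored from the CFP 486 nm/YFP 530 nm FRET ratio 45 min after adding 0.125 microM importin beta to 50 nM Rango biosensor preincubated 5 min with compound (room temperature, PBS with DTT, Tween-20, BSA). No-importin wells as positive control.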
Rango release inh = qHTS Assay for Inhibitors of RanGTP induced Rango (Ran-regulated importin-beta cargo) - Importin beta complex dissociation. Snurportin-1 (Homo sapiens) + GTP-binding nuclear protein Ran (Homo sapiens) + Importin …. Biochemical FRET Rango-importin beta, RanGTP-induced dissociation. Potency, µM (series often up to 46.1 µM), for the others: top-dose activity change, negative = inhibition. hit rate 0.071% among 340,000. AID 540253, 2011; active means falling FRET ratio curve, often poorly fitted, with flat reads before Ran was added; inconclusive means other falling curves, or compound fluorescence or quenching; inactive means flat or rising ratio curve;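 further: potency means the concentration at half of the fitted maximal effect; % of control where 0% means no effect; nearly all actives have a fitted effect of over 45% in size; -100% = wells without RanGTP and RCC1; the record marks most hits as doubtful in a second field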
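Recombinant Rango FRET biosensor (EYFP–snurportin 1 IBB–cerulean CFP10) at 0.1 uM premixed with 0.25 uM importin beta in PBS, 1 mM DTT, 0.02% Tween-20, 0.1% BSA. Compound added 5 min; RanGTP-RCC1 (0.6 uM Ran, 2 mM GTP, 0.2 uM RCC1) then triggers release, read at 45 min.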
The depositor's hits bear a star; u = inconclusive; x = not tested or not shown.

GLA inh pH 4.5 | miR-21 reporter | Rango-impB inh | Rango release inh | molecule
6 | 1% | -0.9% | -4% | CCn1cc(CNC(=O)c2cc(COc3ccc(F)cc3Cl)on2)cn1
x | x | 3.4% | 3% | O=C(NCCS(=O)(=O)N1CCN(c2cccc(Cl)c2)CC1)C1CC1
-9 | 29% | 2.3% | -1% | CC(=O)CCS(=O)(=O)c1ccc(Oc2ccc(S(=O)(=O)CCC(C)=O)cc2)cc1
x | 5% | -2.3% | 0% | CC(=O)c1ccc(N2CCN(C(=O)c3cc(-c4ccncc4)nc4ccc(Br)cc34)CC2)cc1
x | -2% | 0.7% | 2% | Cc1[nH]c(=O)c(C#N)c(C)c1CCC(=O)NCc1ccc(Cl)cc1
7 | -2% | -0.3% | 1% | CC(C)C(=O)Nc1ccc(C(=O)NNC(=O)NC2CCCCC2)cc1
-5 | -8% | -4.5% | -1% | O=C(CN1CCCCCC1)Nc1ccc(F)c(F)c1F
x | x | 2.2% | -14% | O=C(CNC(=O)c1cccc(N2C(=O)c3ccccc3C2=O)c1)Nc1ccc(F)c(F)c1
x | 2% | 2.6% | 6% | C[C@@]12CCC3[C@@](CC[C@@H]4[C@](C)(C(=O)O)CCC[C@@]34C)(C[C@H]1O)C2 (stereo not given in full)
-2 | -6% | -3.6% | -3% | Cc1ccccc1NC1(C#N)C(=O)Nc2ccccc21 (stereo not given)
x | x | 1.5% | -3% | CC1(c2ccc3ccccc3c2)NC(=O)N(CC(=O)N2CCC(C(N)=O)CC2)C1=O (stereo not given)
-2 | -46% | 2.9% | -16% | O=C(CSc1nc2ccccc2[nH]1)c1cccs1
1 | -5% | 2.4% | -2% | Cc1noc(C)c1S(=O)(=O)N1CCCC(C(=O)c2cccc(OC(C)C)c2)C1 (stereo not given)
x | 9% | -2.2% | -6% | COc1cccc(OCc2cc(C(=O)NCc3cnc4ccccn34)no2)c1
x | 0% | -0.6% | -2% | Cc1ccc(N2CCN(C(=O)NC3CCCCC3)CC2)c(C)c1
x | -29% | -3.1% | 17% | O=C(Nc1ccc2c(c1)OCO2)Nc1ccccc1F
-12 | -45% | -0.9% | 0% | CN(c1ccccc1)c1nc(N)c([N+](=O)[O-])c(NCc2ccco2)n1
-10 | -4% | u | 19% | CS(=O)(=O)N1N=C(c2ccco2)CC1c1cccc([N+](=O)[O-])c1 (stereo not given)
x | x | 0.7% | 3% | COc1ccc(S(=O)(=O)Oc2ccc3cccc(N)c3c2)cc1
-2 | -7% | -2.7% | -6% | N#Cc1c(OCC(=O)c2ccccc2)nc2c(c1-c1ccco1)CCc1ccccc1-2
x | -1% | -0.8% | 18% | Cc1ccccc1N1CCN(C2CCCN(C(=O)CCC(F)(F)F)C2)CC1 (stereo not given)
-1 | -10% | 0.7% | 16% | C=C(C)CNC(=S)N/N=C(\C)c1ccc(OC)cc1
-2 | 5% | 1.0% | 12% | Oc1ccc2ccccc2c1C=NC1CCCCC1
x | -52% | 0.0% | 14% | CCN(CC)Cc1c(O)ccc2occ(C(=O)c3ccccc3)c12
3 | 0% | -2.3% | -11% | CCCCn1c(SC(C)C(=O)c2ccc(OC)cc2)nc2cc(S(N)(=O)=O)ccc21 (stereo not given)

Single values from above.
Reading for Cc1[nH]c(=O)c(C#N)c(C)c1CCC(=O)NCc1ccc(Cl)cc1 under miR-21 reporter: -2%
Reading for O=C(NCCS(=O)(=O)N1CCN(c2cccc(Cl)c2)CC1)C1CC1 under Rango release inh: 3%
Reading for CCCCn1c(SC(C)C(=O)c2ccc(OC)cc2)nc2cc(S(N)(=O)=O)ccc21 (stereo not given) under Rango-impB inh: -2.3%

Compounds shown so far that have an aryl methoxy group (4):
GLA inh pH 4.5 | miR-21 reporter | Rango-impB inh | Rango release inh | molecule
x | 9% | -2.2% | -6% | COc1cccc(OCc2cc(C(=O)NCc3cnc4ccccn34)no2)c1
x | x | 0.7% | 3% | COc1ccc(S(=O)(=O)Oc2ccc3cccc(N)c3c2)cc1
-1 | -10% | 0.7% | 16% | C=C(C)CNC(=S)N/N=C(\C)c1ccc(OC)cc1
3 | 0% | -2.3% | -11% | CCCCn1c(SC(C)C(=O)c2ccc(OC)cc2)nc2cc(S(N)(=O)=O)ccc21 (stereo not given)

Further compounds.
GLA inh pH 4.5 | miR-21 reporter | Rango-impB inh | Rango release inh | molecule
-1 | 15% | -2.2% | -5% | O=C(CCc1ccccc1)NNc1ccc(F)cc1
-7 | -2% | -2.0% | 1% | CC1CCN(C(=O)CSCC(=O)O)CC1
x | -2% | 2.6% | -5% | CC(=O)Nc1ccc(NC(=O)C2CCCN2C(=O)NC2CCCCC2)cc1 (stereo not given)
x | x | -1.2% | -4% | CC(NS(=O)(=O)c1cccc(C(=O)O)c1)C12CC3CC(CC(C3)C1)C2 (stereo not given)
x | x | 0.7% | 0% | CC1CCN(S(=O)(=O)c2cc3c4c(c2)CCN4C(=O)CC3)CC1
-4 | 0% | 0.4% | -2% | FC(F)(F)c1ccc(/C=N/N2CCN(Cc3cccc4ccccc34)CC2)cc1
-18 | -3% | 2.5% | -7% | O=C(COc1ccc(S(=O)(=O)NC2CCCCC2)cc1Cl)NCc1cccnc1
x | x | -0.3% | -15% | Cc1ccc(C)c(-c2csc(NC(=O)C3=COCCO3)n2)c1
-10 | -6% | 2.1% | 16% | FC(F)(F)c1cccc(CN2CCCCCC2)c1
-7 | -1% | 0.6% | -9% | O=C(CCC(=O)N1CCN(S(=O)(=O)c2cccc(F)c2)CC1)c1cccs1
9 | 1% | -2.4% | u | COc1ccc(C(=O)Nc2sc3c(c2C(=O)NCc2ccco2)CCCC3)cc1OC
x | x | -1.0% | 4% | Cc1cccc(NC(=O)CSc2nc3ccccc3c(=O)n2CC2CCCO2)c1 (stereo not given)
0 | -10% | -1.4% | -3% | Fc1ccccc1N1CCN(C(c2ccncc2)c2nnnn2C2CCCC2)CC1 (stereo not given)
-7 | 2% | 1.4% | 7% | Cc1ccnc(SCC(=O)N2CCC(C(N)=O)CC2)n1
-7 | -3% | 0.2% | -8% | COc1cc(NC(=O)CN(C)Cc2cccc(F)c2)c(C)cc1[N+](=O)[O-]
x | x | -1.0% | 1% | Cc1ccc(C(=O)NCC(=O)Nc2ccc(Cl)cc2)s1
x | -8% | 1.0% | 18% | COc1ccc(NC(=S)N2CCN(S(=O)(=O)c3ccc(F)cc3)CC2)cc1OC
-6 | 3% | 3.8% | 5% | Cc1ccc(S(=O)(=O)N2CCN(Cc3cc(C(C)C)ccc3O)CC2)cc1
x | x | u | -9% | CCc1ccc(CCC(=O)N2CCN(S(=O)(=O)c3sc(C(=O)O)c(C)c3C(=O)O)CC2)cc1
x | x | -1.1% | -21% | CCOC(=O)c1sc(NC(=O)c2c(CC)noc2C)nc1C
x | 13% | -1.4% | -1% | COc1ccc(NS(=O)(=O)c2ccc(OCC(=O)N3CCOCC3)cc2)cc1Cl
-1 | -2% | -1.4% | 1% | O=C(NC1CC2CCCC(C1)N2S(=O)(=O)c1ccccc1)C1CCCCC1 (stereo not given)
x | x | -3.9% | 7% | COc1ccccc1OCC(=O)Nc1cc(S(=O)(=O)N2CCOCC2)ccc1N1CCCCC1
x | -43% | -0.6% | 1% | Cc1ccc2nc(N(CCCN(C)C)C(=O)c3ccc4ncsc4c3)sc2c1
x | -50% | u | 18% | COC(=O)c1ccc2[nH]c(C(C)(C)O)c(C)c2c1
11 | 2% | 2.0% | -6% | Cc1cc(C)cc(NC(=S)NN)c1
x | x | 1.8% | 10% | O=S(=O)(Nc1ccccc1N1CCOCC1)c1cccs1
4 | -11% | 0.2% | -5% | Cc1nn(C)cc1CNCc1ccc(OCC(O)CN(C)Cc2ccccc2)cc1 (stereo not given)
-24 | -29% | u | -4% | O=C(/C=C/c1ccc2c(c1)OCCO2)c1ccc(O)cc1
x | x | 6.7% | -10% | C#CCOCCOCCOCCNc1nc(N2CCN(C(=O)C([C@@H](C)CC)n3cc(C(N)COC(=O)C(F)(F)F)nn3)CC2)nc(N2CCN(C(=O)[C@H](Cc3ccc(O)cc3)n3cc(C(N)[C@H](C)CC)nn3)CC2)n1 (stereo not given in full)
x | x | 0.6% | -10% | CN(C(=O)c1cccc(NC(=O)Cc2cccc(NC(=O)C3CCCN(C(=O)c4ccccc4)C3)c2)c1)C1CCC1 (stereo not given)
x | -11% | -2.6% | 6% | CCOc1ccc2[nH]c3nc(SCC(=O)NCC4CCCO4)nnc3c2c1 (stereo not given)
-5 | -3% | u | -6% | N#CC1=C(N)OC2=C(C(=O)CCC2)C1c1ccoc1 (stereo not given)
x | -17% | -1.1% | 0% | CC(=O)c1c(C)cc(C)c(CSc2ccccn2)c1C
0 | -10% | 1.5% | 32% | Cc1cc2oc(C(=O)N(Cc3ccccc3)C3CCS(=O)(=O)C3)cc(=O)c2cc1Cl (stereo not given)
-3 | 2% | 3.3% | -9% | CC(C)Oc1cc(N)c(Cl)cc1Cl
-23 | 21% | 0.8% | 19% | O=C(NCc1nc(-c2ccc(C(F)(F)F)cc2)no1)Nc1ccc(OC(F)(F)F)cc1
-9 | 15% | -0.8% | -2% | Cc1ccccc1-n1ncc2c(SCC(=O)NCc3cccs3)ncnc21
-1 | -3% | 5.1% | -6% | CCc1ccc(C(=O)CSc2nnc(C)c(=O)[nH]2)cc1
-18 | 0% | -3.8% | -18% | CN(C1CCCCC1)S(=O)(=O)c1ccc(C(=O)N2CCN(c3nc4ccccc4s3)CC2)cc1
x | -1% | -4.5% | 3% | O=C(Cc1c(F)c(F)c(F)c(F)c1F)Nc1nc(-c2ccccc2)cs1
-4 | -6% | 6.0% | 1% | C=CCSc1nc2sc3c(c2c(=O)n1CC=C)CCc1ccccc1-3
x | -11% | 2.3% | 0% | Cc1cc(C)n2nc(C(=O)N3CCCC(Nc4ccc(C(C)C)cc4)C3)cc2n1 (stereo not given)

One compound at a time (already shown). Order of screens: GLA inh pH 4.5	miR-21 reporter	Rango-impB inh	Rango release inh
Listed for `C=CCSc1nc2sc3c(c2c(=O)n1CC=C)CCc1ccccc1-3` = -4	-6%	6.0%	1%
Listed for `Cc1cc(C)cc(NC(=S)NN)c1` = 11	2%	2.0%	-6%

Part of the list above in another layout.
Compound | GLA inh pH 4.5 | miR-21 reporter | Rango-impB inh | Rango release inh
C#CCOCCOCCOCCNc1nc(N2CCN(C(=O)C([C@@H](C)CC)n3cc(C(N)COC(=O)C(F)(F)F)nn3)CC2)nc(N2CCN(C(=O)[C@H](Cc3ccc(O)cc3)n3cc(C(N)[C@H](C)CC)nn3)CC2)n1 (stereo not given in full) | x | x | 6.7% | -10%
O=S(=O)(Nc1ccccc1N1CCOCC1)c1cccs1 | x | x | 1.8% | 10%
CCc1ccc(C(=O)CSc2nnc(C)c(=O)[nH]2)cc1 | -1 | -3% | 5.1% | -6%
CN(C(=O)c1cccc(NC(=O)Cc2cccc(NC(=O)C3CCCN(C(=O)c4ccccc4)C3)c2)c1)C1CCC1 (stereo not given) | x | x | 0.6% | -10%
Cc1nn(C)cc1CNCc1ccc(OCC(O)CN(C)Cc2ccccc2)cc1 (stereo not given) | 4 | -11% | 0.2% | -5%
Cc1cc(C)cc(NC(=S)NN)c1 | 11 | 2% | 2.0% | -6%

Not all compounds are listed; the hit share may differ from the screen's.
